KCNQ2 inh: KCNQ2 potassium channel inhibitors, primary screen, cell-based, CHO-K1, FluxOR thallium flux, B-score (AID 2156). 20 min; stronger effect = lower value; only compounds with negative scores are shown here; some inactives read as strong as hits. B-score at 10 µM. Potassium voltage-gated channel subfamily KQT member 2 (Rattus norvegicus), O88943. 310,000 compounds, 1.1% hits;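 active means fluorescence ratio B-score at most minus 3 library SDs, with starting brightness B-score within 2 library SDs, cut at about -5.5 in these data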
Target sequence (O88943 whole entry, looked up): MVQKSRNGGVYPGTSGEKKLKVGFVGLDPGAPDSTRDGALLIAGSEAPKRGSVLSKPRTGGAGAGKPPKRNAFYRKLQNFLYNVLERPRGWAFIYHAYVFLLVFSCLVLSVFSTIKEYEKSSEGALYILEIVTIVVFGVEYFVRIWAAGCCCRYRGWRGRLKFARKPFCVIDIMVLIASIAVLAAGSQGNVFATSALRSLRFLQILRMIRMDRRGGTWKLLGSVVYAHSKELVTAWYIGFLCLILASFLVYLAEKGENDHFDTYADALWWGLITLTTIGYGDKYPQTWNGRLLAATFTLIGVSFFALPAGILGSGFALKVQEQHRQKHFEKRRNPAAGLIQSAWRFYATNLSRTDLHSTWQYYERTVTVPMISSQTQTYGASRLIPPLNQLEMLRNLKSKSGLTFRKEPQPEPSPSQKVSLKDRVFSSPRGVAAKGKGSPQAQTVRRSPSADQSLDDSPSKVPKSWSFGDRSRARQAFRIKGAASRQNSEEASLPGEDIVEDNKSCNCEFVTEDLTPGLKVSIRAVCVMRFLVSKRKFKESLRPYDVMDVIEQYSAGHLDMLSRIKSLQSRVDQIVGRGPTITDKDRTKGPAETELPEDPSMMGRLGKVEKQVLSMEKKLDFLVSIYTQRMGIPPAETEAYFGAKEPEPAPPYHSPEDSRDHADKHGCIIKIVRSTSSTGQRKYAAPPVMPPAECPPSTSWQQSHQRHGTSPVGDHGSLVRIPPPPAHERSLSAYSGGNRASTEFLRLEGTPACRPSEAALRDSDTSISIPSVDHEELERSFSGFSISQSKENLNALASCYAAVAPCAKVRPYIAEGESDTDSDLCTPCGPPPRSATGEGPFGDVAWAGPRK
KCNQ2 inh baseline: also measured in KCNQ2 inh; calls as there; B-score; measured here: initial fluorescence intensity artifact check;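 brightness before thallium and not channel activity; 0 = typical well and far values either way flag optical interference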
* hit, by the source's call; i = inactive. Not all compounds are listed; rates above refer to the full screens.

SMILES	KCNQ2 inh	KCNQ2 inh baseline
CCOC(=O)C1(Cc2ccccc2C(F)(F)F)CCN(CC2CC2)CC1	i	-0.77
Cc1cc(C)c(S(=O)(=O)NC2CC3CCC2C3)c(C)c1 (stereo unspecified)	i	1.2
Nc1cc(=O)[nH]c(SCC(=O)Nc2ccc(Cl)c(Cl)c2)n1	i	2.5
Cc1noc2ncnc(Oc3ccc(C(C)(C)C)cc3)c12	i	0.9
CN1CCSc2ccc(C(=O)NCc3cccc(Br)c3)cc21	i	3.2
CCCCNS(=O)(=O)c1ccc2nc(SCC(=O)Nc3ccccc3Cl)[nH]c2c1	i	-1.2
O=C1CCCCc2sc(Br)c([N+](=O)[O-])c2N1	i	-1.9
CCc1cc2c(=O)c(-c3nc4ccccc4n3C)coc2c(CN2CCOCC2)c1O	i	0.74
Cc1ccc(-n2nc3c(=O)n(CCCC(=O)N4CCC(C)CC4)nc(C)c3c2C)cc1	i	-0.36
Cc1ccc(C(=O)C2=C(O)C(=O)N(CCN3CCOCC3)C2c2ccccn2)o1 (stereo unspecified)	i	0.26
Cc1ccc(CNC(=O)C23CN(Cc4ccccc4)CC2C(c2cccc([N+](=O)[O-])c2)=NO3)cc1 (stereo unspecified)	i	-0.97
Cc1cccnc1CCNC(=O)CCc1nnc(CCc2ccccc2)o1	i	0.11
CC(C)c1ccc(/C=C/C(=O)N2CCOCC2)cc1	i	-0.81
O=C1NC(c2ccc(Cl)cc2)Oc2ccccc21 (stereo unspecified)	i	0.33
Cc1cccc(N(C(=O)Cn2nnc(-c3ccc(C)o3)n2)C(C(=O)NC2CCCC2)c2ccncc2)c1 (stereo unspecified)	i	1.4
COc1ccc(N/N=C(/C)c2cnnc(-c3ccccc3)n2)cc1	i	-1.4
C=C(C)CSc1nc2sc3c(c2c(=O)n1-c1ccc(C)cc1)CCN(C)C3	i	0.02
CCCCc1noc(-c2c(-c3ccccc3Cl)noc2C)n1	i	0.32
Cc1cccc(OCC(=O)N(Cc2ccc(F)cc2)C2CCS(=O)(=O)C2)c1C (stereo unspecified)	i	-1.5
CC1CN(S(=O)(=O)c2ccc(C(=O)Nc3nnc(-c4ccc5c(c4)CCCC5)o3)cc2)CC(C)O1 (stereo unspecified)	i	-0.26
Cc1cc(O)c(C(C)C)cc1NC1=NS(=O)(=O)c2ccccc21	i	1.7
COCCCNC(=S)N(CCCN(C)C)Cc1cc2cc3c(cc2[nH]c1=O)OCCO3	i	1.1
Cc1cc(C)nc(-n2ncc3c2CC(c2ccc(C(C)C)cc2)CC3=O)n1 (stereo unspecified)	i	0.6
C[n+]1cccc2ccc3c(c21)OC(N)=C(C#N)C3c1ccccc1 (stereo unspecified)	i	2.3
O=S1(=O)CCOCCN1Cc1ccc(Cl)cc1Cl	i	-0.19
CCNC(=O)CCC(=O)Nc1cc(Cl)ccc1C	i	2.1
CCCc1ccc2oc(C(=O)NCCN3CCCC(C(N)=O)C3)c(C)c2c1 (stereo unspecified)	i	0.94
O=c1cc(CN2CCC3(CC2)OCCO3)c2c(ccc3ccccc32)o1	i	1.1
N#CC1=C(N)Oc2cc(N)ccc2C1C1CC=CCC1 (stereo unspecified)	i	-0.02
COc1ccc(C2C3=C(Nc4ncnn42)c2ccccc2CC3)cc1OC (stereo unspecified)	i	2.6
CC1CCCCC12NC(=O)N(CC(=O)NCCc1ccccn1)C2=O (stereo unspecified)	i	3.9
CC(=O)Nc1ccc(N=Cc2c(O)ccc3ccccc23)cc1	i	2.4
O=C(Nc1ccc2nn(-c3ccccc3)nc2c1)c1ccc2c(c1)OCCO2	i	-0.3
COc1ccc(S(=O)(=O)N2CCCCCC2)cc1C(=O)N(C)CCOc1ccc(Cl)cc1	i	-0.93
NC1=NS(=O)(=O)NC1c1cccc(Cl)c1 (stereo unspecified)	i	-1.2
CSc1ccccc1C(=O)Nc1cc(C)ccc1C	i	-0.36
CN1CCc2c(sc3c2C(=O)NC(/C=C\c2ccccc2)N3)C1 (stereo unspecified)	i	0.01
COc1ccc(C(c2nnnn2Cc2cccs2)N2CCN(c3ccc(F)cc3)CC2)cc1OC (stereo unspecified)	i	0.02
O=C(CCCN1C(=O)c2ccccc2C1=O)Nc1c(C(=O)C2CC2)oc2ccccc12	i	-0.09
CCN1C(=O)N(S(=O)(=O)c2ccc(C)cc2)[C@@H](c2ccccc2)C(C(=O)OC)=C1C	i	-0.1
c1ccc2c(c1)OCC(c1nnc3sc(-c4cnccn4)nn13)O2 (stereo unspecified)	i	-0.21
CN(C[C@H](CC1CCCCC1)N(C[C@H](Cc1ccccc1)N(CCc1ccccc1)N=O)N=O)N=O	i	-1.1
CC(CCc1ccccc1)NC(=O)COC(=O)c1ccccc1Br (stereo unspecified)	i	-0.01
Cc1ccc(S(=O)(=O)N(Cc2ccc(Cl)cc2)c2ccccc2C(=O)NCc2cccnc2)cc1	i	-1.2
CC1Oc2ccccc2N(CC(=O)N(Cc2ccccc2)Cc2ccccn2)C1=O (stereo unspecified)	-7.2*	-0.02*
COc1ccc(Cc2nc(-c3ccncc3)no2)cc1	i	-0.49
Cc1cccc(-n2c(C)cc(/C=C3\C(=N)N4N=C(CC(C)C)SC4=NC3=O)c2C)c1	i	-0.63
CCS(=O)(=O)c1ccccc1C(=O)NC1CCCc2ccccc21 (stereo unspecified)	i	0.88
CCOc1cc(C(=O)NN2CCOCC2)cc(OCC)c1OCC	i	-0.59
O=C(O)CC(NC(=O)C12CC3CC(CC(C3)C1)C2)c1ccc(Cl)cc1 (stereo unspecified)	i	2.1
CCOC(=O)NC(=O)/C(N=Nc1ccc(C(F)(F)F)cc1)=C(\C)O	i	3.4
CC(=O)NC(CC(=O)N(C)Cc1cccc(Cl)c1Cl)c1ccccc1 (stereo unspecified)	i	-0.01
Cc1ccc(Nc2cc(=O)[nH]c(=O)[nH]2)cc1Cl	i	1.3
Cc1cccc(-c2nnc(-c3cccc(NC(=O)Cc4cccs4)c3)o2)c1	i	-1.5
O=C(O)CC1Oc2ccc(Cl)cc2NC1=O (stereo unspecified)	i	0.73
CCc1ccccc1NC(=O)COc1cccc2ccc(C)nc12	i	0.05
CCCn1c(SCC(=O)Nc2ccc3c(c2)CCC3)n[nH]c1=O	i	-0.01
CCOC(=O)C(NC(C)=O)(Nc1ccc(F)cc1)C(F)(F)F (stereo unspecified)	i	-1.6
CCOC(=O)N1CCN(C(=O)C(C)n2nc(C)n3c(cc4sccc43)c2=O)CC1 (stereo unspecified)	i	0.54
CCOc1cc(C(=O)NCCOC)ccc1OC	i	-0.18

For reference, 19 of the compounds above.
SMILES	KCNQ2 inh	KCNQ2 inh baseline
c1ccc2c(c1)OCC(c1nnc3sc(-c4cnccn4)nn13)O2 (stereo unspecified)	i	-0.21
CN(C[C@H](CC1CCCCC1)N(C[C@H](Cc1ccccc1)N(CCc1ccccc1)N=O)N=O)N=O	i	-1.1
CC(CCc1ccccc1)NC(=O)COC(=O)c1ccccc1Br (stereo unspecified)	i	-0.01
Cc1ccc(S(=O)(=O)N(Cc2ccc(Cl)cc2)c2ccccc2C(=O)NCc2cccnc2)cc1	i	-1.2
CC1Oc2ccccc2N(CC(=O)N(Cc2ccccc2)Cc2ccccn2)C1=O (stereo unspecified)	-7.2*	-0.02*
COc1ccc(Cc2nc(-c3ccncc3)no2)cc1	i	-0.49
Cc1cccc(-n2c(C)cc(/C=C3\C(=N)N4N=C(CC(C)C)SC4=NC3=O)c2C)c1	i	-0.63
CCS(=O)(=O)c1ccccc1C(=O)NC1CCCc2ccccc21 (stereo unspecified)	i	0.88
CCOc1cc(C(=O)NN2CCOCC2)cc(OCC)c1OCC	i	-0.59
O=C(O)CC(NC(=O)C12CC3CC(CC(C3)C1)C2)c1ccc(Cl)cc1 (stereo unspecified)	i	2.1
CCOC(=O)NC(=O)/C(N=Nc1ccc(C(F)(F)F)cc1)=C(\C)O	i	3.4
CC(=O)NC(CC(=O)N(C)Cc1cccc(Cl)c1Cl)c1ccccc1 (stereo unspecified)	i	-0.01
Cc1ccc(Nc2cc(=O)[nH]c(=O)[nH]2)cc1Cl	i	1.3
Cc1cccc(-c2nnc(-c3cccc(NC(=O)Cc4cccs4)c3)o2)c1	i	-1.5
O=C(O)CC1Oc2ccc(Cl)cc2NC1=O (stereo unspecified)	i	0.73
CCc1ccccc1NC(=O)COc1cccc2ccc(C)nc12	i	0.05
CCCn1c(SCC(=O)Nc2ccc3c(c2)CCC3)n[nH]c1=O	i	-0.01
CCOC(=O)C(NC(C)=O)(Nc1ccc(F)cc1)C(F)(F)F (stereo unspecified)	i	-1.6
CCOC(=O)N1CCN(C(=O)C(C)n2nc(C)n3c(cc4sccc43)c2=O)CC1 (stereo unspecified)	i	0.54

Further results
SMILES	KCNQ2 inh	KCNQ2 inh baseline
Cc1ccccc1-c1nc(P(=O)(c2ccccc2)c2ccccc2)c(N2CCOCC2)o1	i	0.42
Cc1cc2nc3c(nc2cc1C)C1(C(=O)O)CCC3(C)C1(C)C (stereo unspecified)	i	0.67
CCc1ccc(C2=NN(S(C)(=O)=O)C(c3cccs3)C2)cc1 (stereo unspecified)	i	0.62
COc1ccc(O)c(/C=N/Nc2nc3ccccc3[nH]2)c1	i	-1.4
CCN(CC)CCOC(=O)c1ccc(NC(=O)COc2cc(=O)n(CC)c3ccccc23)cc1	i	0.22
CN(c1ccccc1)S(=O)(=O)c1cccc(C(=O)NCCc2ccc(O)c(O)c2)c1	i	-2.1
CC(CCc1ccccc1)NCC(O)c1ccc(O)c(C(N)=O)c1 (stereo unspecified)	i	-0.39
CCCCSCCCNC(=S)Nc1ccccc1C	i	-1.5
NC(=O)NC(=O)COC(=O)c1ccccc1OCc1ccc(F)cc1	i	0.12
CCCC(C)c1nnc(NC(=O)C2CC(=O)N(c3ccc(OCC)cc3)C2)s1 (stereo unspecified)	i	1.1
Cc1cc(OCC(=O)N2CCN(c3ccccn3)CC2)cc(C)c1Br	-6*	-0.93*
COc1ccc(CNC(=O)[C@@H](NC(=O)C2CCN(S(=O)(=O)c3ccc(C)cc3)CC2)C(C)C)cc1OC	i	0.7
CN(C)S(=O)(=O)c1cccc(NC(=S)Nc2ccc(Cl)cc2Cl)c1	i	0.05
CCC(C)(C)n1nnnc1CN1CCc2ccccc21	i	-0.24
CC(C)c1nnc(NC(=O)C2CCCN2C(=O)Nc2ccc(F)cc2)s1 (stereo unspecified)	i	2.6
COC(=O)N(C)CCCC1(C)C(=O)N(C)c2ccc(O)cc21 (stereo unspecified)	i	-1.2
CCN(Cc1ccncc1)Cc1cn(C)nc1-c1ccc(Oc2ccccc2)cc1	i	-3
NC(N)=N/N=C/c1cccc(Cl)c1Cl	i	0.45
CCCOc1nc(SCCC)nc2c1cnn2-c1ccccc1	i	2.2
O=C(CN1C(=O)C(=O)N(Cc2ccco2)C1=O)NC1CCCCC1	i	-1.6
Cc1cccc(C)c1OCc1nnc(SCC(=O)Nc2ccccc2F)o1	i	0.73
O=C(C1CCCCCC1)N1CC[C@@H](N2CCC(O)CC2)[C@H](O)C1	i	-0.18
CCOC(=O)N1CCN(CCC(=O)c2ccc(Br)cc2)CC1	-7.1*	1.9*
CCOC(=O)c1c(NC(=O)CN2C(=O)NC3(CCCCC3C)C2=O)sc(C)c1C (stereo unspecified)	i	1.1
Cn1c(=O)c2c(-c3ccc(C(C)(C)C)cc3)n(CC3CCCO3)cc2n(C)c1=O (stereo unspecified)	i	-1.6
CCC(C(=O)NCc1ccco1)N(C(=O)CNS(=O)(=O)c1ccc(C)cc1)c1ccccc1OC (stereo unspecified)	i	-0.46
Cc1cccc(OCC2CCCN(Cc3nc(C4CC4)no3)C2)c1 (stereo unspecified)	i	-1.5
COc1cccc(C2=CC(c3cccc(OC)c3OC)n3nnnc3N2)c1 (stereo unspecified)	i	0.03
O=C(NCc1ccccc1Cl)C1(S(=O)(=O)c2ccc(Cl)cc2)CC1	-5.7*	-1.1*
CCCOc1ccc(C(=O)NCCc2ccccc2)cc1	i	0.06
Cc1cc(S(=O)(=O)N2CCCOC2CNC(=O)C(=O)NCCCN2CCOCC2)ccc1F (stereo unspecified)	i	0.02
CSC1=NCCN1S(=O)(=O)c1ccccc1	i	-0.88
O=C(O)C1CSC(c2ccc3c(c2)OCO3)N1 (stereo unspecified)	i	0.83
Cn1c(SCC(=O)Nc2cc(C(C)(C)C)nn2-c2ccccc2)nc2ccccc21	i	-0.57
CC(Oc1cc2oc(=O)c3c(c2cc1Cl)CCC3)C(=O)NCc1ccccn1 (stereo unspecified)	i	-1.5
S=c1[nH]nc(-c2ccc(Cl)cc2)n1Cc1ccccc1	i	-0.59
CC(=O)Nc1ccc(S(=O)(=O)Oc2ccc(/C=N/NC(=O)c3ccc(Cl)cc3)cc2)cc1	i	1.9
O=C(NC1CCCC1)C1CCCN1S(=O)(=O)c1cccc2cccnc12 (stereo unspecified)	i	1.2
CN(C)c1cccc(C(=O)N/N=C/c2ccsc2)c1	i	-0.44
O=C(O)CCCCC1CCSS1 (stereo unspecified)	i	5.2
CN(C)c1ccc2nc3c(=O)[nH]c(=O)nc-3n(CC(O)C(O)C(O)CO)c2c1 (stereo unspecified)	i	23
Cn1c(=O)c(=O)n(C)c2cc(S(=O)(=O)NCCOc3ccccc3Cl)ccc21	i	0.17
CCOc1ccc(N(CC(=O)NCc2cccnc2)S(=O)(=O)c2ccc(F)cc2)cc1	i	-0.91
O=S1(=O)CCN2C=C(Cl)C=C(Cl)C2=N1	i	1.6
CCCCCn1c(CN2CC(C)OC(C)C2)nc2c1c(=O)n(C)c(=O)n2C (stereo unspecified)	i	-0.17
Cc1c(C(=O)OCC2CCCO2)[nH]c2c1C(=O)CC(c1ccc(N(C)C)cc1)C2 (stereo unspecified)	i	-0.02
O=C(NCC1(c2ccccc2)CCCC1)C1(c2ccccc2)CCCC1	-7*	0.98*
C=CC[C@H]1Cc2c(cccc2[N+](=O)[O-])[C@H](CC=C)N1	i	0.49
Cn1[nH]c(=O)c2ccccc2c1=O	i	1.3
O=C(Cc1cccs1)N/N=C\c1ccc([N+](=O)[O-])s1	i	3.4
C=CCOC(=O)Nc1snnc1C	i	-0.42
O=c1[nH]c(CSc2nnc(Cc3ccccc3)o2)nc2ccccc12	i	1.8
